Screens: PubChem, Broad Institute
Ecoli rRNA inh = reduced GFP signal of wild-type E. coli, primary screen, bacterial rRNA inhibitor project, GFP/RFP fluorescence, OD600, single point; E. coli WT GFP vs humanized-ribosome RFP mutants, 24 h; hits give low values; DMSO median 0, no signal -100; GFP signal change (wild-type ribosome), % (no concentration beside the values); 350,000 compounds, 1.6% hits; AID 720706, 2013;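 active = significant combined selectivity score with lowered wild-type GFP, culture density cut under 30%, mutant RFP and density less affected; inactive = any of these conditions unmet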; note: one replicate is shown; some compounds called inactive have numbers as strong as hits
AF4-AF9 inh = inhibitors of AF4 peptide binding to AF9, primary screen, biochemical, AlphaScreen, biotin-AF4 peptide, FLAG-AF9, single point. Protein AF-9 (Homo sapiens), P42568. inhibition, % at 10 µM. 350,000 compounds, 0.47% hits;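 active = every replicate reaching a set inhibition limit, whatever the replicate mean, cut at about 25% in these data; inconclusive = mean inhibition reaches that limit but some replicates miss it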;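 note: 0% = plate neutral control median and 100% = total signal loss; the record names both 10 and 1 µM as test concentration; the first replicate is given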
Target sequence (P42568 whole entry, looked up): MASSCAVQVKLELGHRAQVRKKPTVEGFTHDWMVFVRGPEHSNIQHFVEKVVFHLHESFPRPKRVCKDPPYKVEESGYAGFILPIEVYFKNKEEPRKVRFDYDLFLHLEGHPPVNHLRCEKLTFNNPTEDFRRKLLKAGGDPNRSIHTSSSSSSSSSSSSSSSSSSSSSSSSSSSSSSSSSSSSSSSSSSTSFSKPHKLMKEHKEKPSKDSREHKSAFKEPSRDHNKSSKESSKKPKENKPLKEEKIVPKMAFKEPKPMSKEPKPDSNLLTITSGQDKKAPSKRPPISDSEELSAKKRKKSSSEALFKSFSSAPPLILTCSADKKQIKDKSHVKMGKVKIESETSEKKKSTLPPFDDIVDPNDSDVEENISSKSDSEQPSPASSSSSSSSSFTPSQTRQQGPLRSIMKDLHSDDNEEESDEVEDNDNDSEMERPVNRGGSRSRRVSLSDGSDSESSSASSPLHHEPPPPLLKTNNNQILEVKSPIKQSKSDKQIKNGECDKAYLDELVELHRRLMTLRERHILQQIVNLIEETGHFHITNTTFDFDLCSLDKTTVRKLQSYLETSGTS
T cruzi inh = inhibitors of intracellular T. cruzi growth, primary screen, luminescence, NIH3T3 host cells; T. cruzi beta-gal in NIH3T3, 90 h; inhibition, % (test concentration not listed); 300,000 compounds, 1.4% hits;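 active = mean inhibition across valid replicates above about 55%, limit read from the data; inconclusive = mean below that limit but half or more replicates reach it; inactive = mean below it, under half of replicates reach it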;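 note: signal also drops with host cell toxicity which is not excluded here; 0% = plate median of DMSO wells and 100% = zero luminescence signal; higher percent means less beta-gal luminescence so fewer parasites; stock transfer was 50 nL into about 50 µL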
Calb FLC = C. albicans growth inhibition with fluconazole, primary screen, CaCi-2 strain, Alamar Blue fluorescence | AID 1979, 2009 | C. albicans CaCi-2 (fluconazole-resistant clinical isolate) + fluconazole, 48 h | 300,000 compounds, 0.57% hits | growth inhibition, % (test concentration not listed);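 active = most replicates above 75%; inconclusive = exactly half above 75%; inactive = most below 75%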;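 note: all wells also contain fluconazole at 8 µg/ml as a sub-toxic cotreatment; 0% = median of DMSO wells and 100% = median of geldanamycin control wells; wells of about 8 µL received 7.5 nL stock; the first replicate is given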
ALR inh = inhibitors of human ALR sulfhydryl oxidase, primary screen, biochemical, H2O2 detection, HRP-luminol luminescence, single point; FAD-linked sulfhydryl oxidase ALR (Homo sapiens), P55789; purified ALR, DTT oxidation; inhibition, % (concentration not given with the values); 290,000 compounds, 3.8% hits; AID 485317, 2010;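 active = mean and each replicate at 75% or more; inconclusive = only one of the two met; inactive = neither met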;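 note: stock transfer was 7.5 nL into about 7.5 µL; 0% = neutral wells and 100% = wells with inactivated enzyme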
Target sequence (P55789 whole entry, looked up): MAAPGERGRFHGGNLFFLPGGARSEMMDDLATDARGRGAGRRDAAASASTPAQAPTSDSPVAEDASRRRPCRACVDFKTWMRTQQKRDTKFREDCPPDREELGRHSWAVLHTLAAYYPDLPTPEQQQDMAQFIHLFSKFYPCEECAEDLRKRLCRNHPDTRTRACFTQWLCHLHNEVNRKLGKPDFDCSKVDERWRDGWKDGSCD
Beta cell apopt = inhibitors of cytokine-induced beta cell apoptosis, primary screen, luminescence. 300,000 compounds, 0.8% hits. INS-1E cytokine-induced death, ATP luminescence, 48 h; percent of positive-control rescue, neutral wells zero. protection from apoptosis, % (no concentration beside the values);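 active = all replicates at 75% or more, or half of them and the mean; inconclusive = half reach 75% but not the mean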;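 note: 0% = cytokine-treated negative control wells and 100% = positive control rescue; higher means more ATP so stronger rescue from cytokine killing; wells of about 40 µL received 100 nL stock; the first replicate is given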
FGF22 binding = binders of human FGF22 protein, primary screen, FGF22 synaptogenesis inhibitor project, biophysical, thermal shift, single point; Fibroblast growth factor 22 (Homo sapiens), Q9HCT0; recombinant FGF22 thermal shift, SYPRO orange fluorescence; percent of sucrose octasulfate shift, DMSO zero; calls only at 9.99 µM; 340,000 compounds, 1.5% hits;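 active = melting point raised past a set limit in the mean and every replicate; inconclusive = no clear call; three in four hits are not shown here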
Target sequence (Q9HCT0 whole entry, looked up): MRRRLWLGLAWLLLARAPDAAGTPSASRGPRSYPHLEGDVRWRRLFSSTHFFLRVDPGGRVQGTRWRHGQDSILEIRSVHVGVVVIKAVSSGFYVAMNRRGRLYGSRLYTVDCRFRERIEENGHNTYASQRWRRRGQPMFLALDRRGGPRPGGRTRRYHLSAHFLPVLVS
RanGTP-Imp inh = inhibitors of RanGTP-importin-beta interaction, primary screen, biochemical, FRET, CFP-Ran, YFP-importin-beta, homogeneous; Ran GTPase (GTP-bound) - importin-beta complex; inhibition, % (test concentration not listed); 300,000 compounds, 1.1% hits; AID 2216, 2009; cell-free CFP-Ran/YFP-importin-beta FRET ratio;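 active = most replicates above 15%; inconclusive = exactly half above 15%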;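 note: 0% = DMSO wells and 100% = Ran loaded with GDP instead of GTP; wells of about 40 µL received 100 nL stock; the first replicate is given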
Ecoli rRNA inh OD600 = second read-out of Ecoli rRNA inh, no call of its own (marks repeat the call); OD600 change, %; measured here: OD600 growth;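 optical density of the mix in the first replicate; 0 = DMSO median and -100 = no signal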
Ecoli rRNA inh RFP = recorded beside Ecoli rRNA inh, whose call it bears; RFP signal change, %; measured here: RFP humanized mutant strains;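 first replicate; 0 = DMSO median and -100 = no signal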
* marks the source's active call; other numbers are inactive results; i = inactive; ? = inconclusive; nt = not tested or not shown; & = joins results of further samples.

Value order: Ecoli rRNA inh, Ecoli rRNA inh OD600, Ecoli rRNA inh RFP, AF4-AF9 inh, T cruzi inh, Calb FLC, ALR inh, Beta cell apopt, FGF22 binding, RanGTP-Imp inh
1. COc1ccc(-c2noc(-c3ccc4c(c3)OCO4)n2)cc1
  nt, nt, nt, nt, 3, 20, nt, 0, nt, -0.5
2. Cc1cc(NC(=O)CSc2nc(C)c(C)n2CC(C)C)no1
  -2, 6, 2.8, 1.0, nt, nt, 93*, -2, i, nt
3. CCCCNC(=S)N(C)/N=C/c1ccc(OCC(=O)Nc2c(C)cc(C)cc2C)c(OC)c1
  9, 9, 2.0, 2.3, 40, -2, -4, 6, i, 0.6
4. CCC(=O)N(CCN1CCOCC1)Cc1cc2cc3c(cc2nc1Cl)OCO3
  -3, 3, -2.8, -0.5, 7, -26, 0, -1, nt, -15
5. CN(C)c1cc[n+](CCC(=O)Nc2cccc([N+](=O)[O-])c2N)cc1
  nt, nt, nt, nt, -6, -26, -2, -5, nt, -1.2
6. COc1cccc(NC(=O)N2CCC(NC(=O)C(Cc3cccc(C)c3)NC(C)=O)CC2)c1 (stereo not drawn)
  8, 14, 2.2, 0.8, -9, 0, nt, -5, i, 2.2
7. O=C(CCCCCNc1nc(=S)[nH]c2ccccc12)NCCC1=CCCCC1
  3, 10, -1.9, -1.0, -4, 0, 0, 8, i, 5.3
8. O=C(C1=C[C@H](c2csc3ccccc23)C[C@H](OCCCCO)O1)N1CCOCC1
  -3, -6, -0.4, -32&3.4, 14, -2, nt, -2, i, 1.0
9. COc1cc2c(c(OCC(=O)NC(C)C)c1)C(=O)O[C@@H](C)CCCC(=O)CCCCC2
  -1, 4, 0.6, 6.7, 0, 0, 3, -6, i, 2.3
10. Cc1ccc(C)c(C2C(C#N)=C(N)Oc3cc(C)oc(=O)c32)c1 (stereo not drawn)
  nt, nt, nt, nt, -2, -4, 16, -2, nt, -1.5
11. CN(C(=O)COC(=O)c1ccccc1Cc1ccccc1)C1CCS(=O)(=O)C1 (stereo not drawn)
  7, 3, 5.0, -0.1, 11, 0, -15, 2, i, 1.8
12. COC(=O)[C@@H]1C[C@@]2(O)[C@@H](O)[C@@H](O)[C@@H](O)C[C@H]2N1Cc1ccc(C(F)(F)F)cc1
  6, 10, -10, -4.0, 6, -7, nt, -12, i, 2.0
13. O=C1Nc2ccc(Br)cc2C12NNc1ccccc1O2 (stereo not drawn)
  -58, -75, -28, 9.8, 8, 23, -7, -2, i, -27
14. COc1ccc(/C=C/C(=O)OCC(=O)Nc2ccc3[nH]c(=O)[nH]c3c2)cc1OC
  -3, 1, -0.5, -0.6, -7, 3, -6, -4, i, -0.9
15. CS(=O)(=O)c1ccccc1C(=O)N(CCC1=CCCCC1)c1c(N)n(Cc2ccccc2)c(=O)[nH]c1=O
  -2, -8, 1.9, 2.8, 7, -3, nt, -5, i, -0.8
16. CCC(=O)NC(NC(=S)Nc1cccc2cccnc12)C(Cl)(Cl)Cl (stereo not drawn)
  7, -24, -9.0, -9.0, -15, 8, -84, -5, i, -1.4
17. OCC1(Cc2ccccc2)CCN(Cc2cc3ccccc3o2)CC1
  -14, -27, 1.7, 1.4, 17, -13, 9, -5, nt, 2.3
18. NS(=O)(=O)c1cccc(NC(=O)COC(=O)C2CCCCC2)c1
  8, 0, 0.8, 0.1, -8, 0, 1, -2, i, nt
19. Cc1ccc(NC2=C(Cl)C(=O)OC2OC(C)C)c(C)c1 (stereo not drawn)
  nt, nt, nt, nt, -20, -2, -4, -10, nt, 5.3
20. Cc1ccc(C(=O)NC(=S)Nc2ccc3[nH]c(=O)[nH]c3c2)c(C)c1
  17, 22, 15, -3.2, 1, -5, -12, -7, i, 0.3
21. Cc1ccc(Nc2ccc([N+](=O)[O-])ccc2=O)cc1
  14, 17, 1.4, -0.1, -7, -4, -13, nt, i, -1.7
22. Cc1cc(C)c(NC(=O)CN2C(=O)NC3(CCCc4ccccc43)C2=O)c(Cl)c1 (stereo not drawn)
  -6, -15, 1.3, 1.5, -1, -2, 4, 0, i, 1.9
23. O=C1NC(SCCCF)=N/C1=C/c1ccc(-n2cncn2)cc1
  5, 14, -0.6, -31, -10, -8, 3, 11, i, 3.8
24. CCOc1ccc(-n2ccnc(SCC(=O)NCCc3ccccc3)c2=O)cc1
  0, 0, 0.1, -0.8, -8, 9, nt, -7, i, -3.6
25. Cc1ccsc1C1C(C#N)=C(N)OC2=C1C(=O)CC(C)(C)C2 (stereo not drawn)
  -6, 6, 1.8, 11, -3, 3, 29, 1, i, -0.9
26. O=C(CCc1nnc(Cc2ccc(-c3ccccc3)cc2)o1)NCCc1ccccn1
  -5, -6, 2.1, -0.2, -3, -1, 3, -5, nt, 1.4
27. O=C(NC(NCC1CCCO1)C(Cl)(Cl)Cl)c1cccc2ccccc12 (stereo not drawn)
  nt, nt, nt, nt, -5, -79, -5, 1, nt, -2.1
28. CCOC(=O)c1sc(N2C(=O)C(O)=C(C(=O)c3ccc(C)o3)C2c2cccc([N+](=O)[O-])c2)nc1C (stereo not drawn)
  1, 2, -1.1, 3.8, -7, nt, 12, 7, i, nt
29. Cn1c(=O)c2c(O)cc(=O)[nH]c2n(-c2ccccc2)c1=O
  0, 8, 0.6, nt, -13, 10, 16, -6, nt, 1.9
30. Cc1ccc(S(=O)(=O)N2CCN(C(=O)N(c3ccccc3)c3ccccc3)CC2)cc1
  nt, nt, nt, nt, 6, -2, -14, -3, nt, 1.8
31. COc1ccc(OCCNc2c([N+](=O)[O-])c(=O)oc3ccccc23)cc1
  -4, -5, 7.7, -2.5, -2, 12, -6, -6, i, 1.0
32. Cc1ccn2c(=O)nc(SCC(=O)N3CCCc4ccccc43)nc2c1
  0, 6, 4.6, -3.4, 27, -1, nt, 1, i, -1.2
33. CC[C@]1(c2ccccc2C)ON(c2ccccc2C(F)(F)F)C1=O
  9, 10, -3.2, -11, nt, nt, -8, 8, i, nt
34. Oc1cccc2ccc(Nc3ccccn3)nc12
  nt, nt, nt, nt, 62*, 103*, ?, 106*, nt, 4.5
35. O=C(Nc1ccc2[nH]ncc2c1)c1ccccc1Cl
  5, 2, -0.7, -3.0, -11, 10, -18, -2, i, 2.8
36. CCN(CC)c1nc(C)nc2c1sc(=S)n2C
  -11, 3, -2.4, 0.3, -10, -24, -12, 7, i, 0.8
37. CC(C)c1ccc(CNC(=O)C(=O)NCC2CCCO2)cc1 (stereo not drawn)
  11, 7, 4.1, -0.7, 2, -8, -10, 2, i, -0.3
38. Cc1ccc(NC(=O)c2ccc(NCCCN3CCC(C)CC3)c([N+](=O)[O-])c2)cc1F
  -25*, 3.6*, 4.8*, 0.8, 0, -11, -3, 1, i, -3.3
39. NC(=O)c1ccc(NC(=O)CSc2nnc(-c3ccncc3)n2Cc2ccco2)cc1
  12, -2, 16, -0.5, -11, -5, -9, -1, i, 4.6
40. COc1ccccc1-n1c(=S)[nH]c2c(sc(=S)n2-c2ccc(C)cc2C)c1=O
  nt, nt, nt, nt, -12, -6, 0, nt, nt, -4.4
41. C=CCc1cc(/C=C2/NC(=S)NC2=O)cc(OC)c1O
  nt, nt, nt, nt, -5, 14, 34, 5, nt, -13
42. O=C(CN1C(=O)c2ccccc2S1(=O)=O)Nc1ccccc1
  6, -1, 2.1, -19, -11, 7, -16, -5, i, -2.6
43. O=C(CCNS(=O)(=O)c1ccc(OC(F)(F)F)cc1)NCCc1c[nH]c2ccccc12
  1, -13, 9.6, 0.9, nt, nt, 1, 0, i, nt
44. Nc1ccc(N2CCCCC2)c(S(=O)(=O)Nc2ccc(Cl)cc2)c1
  -38, -41, 0.7, 0.8, 5, 0, 6, -1, i, 3.7
45. Cc1ccccc1NS(=O)(=O)c1ccc(C(=O)N2CC(C)OC(C)C2)cc1 (stereo not drawn)
  7, 1, -2.0, -0.8, 8, 30, -2, nt, i, ?
46. COc1ccc(C2=NN(C(N)=S)C(c3ccccc3)C2)cc1 (stereo not drawn)
  -17, -17, -2.0, 9.8, 2, 2, -6, -9, i, 0.5
47. CCc1ccc(S(=O)(=O)N/N=C\c2cn(CC(N)=O)c3ccccc23)cc1
  0, -1, 3.4, -0.4, 7, 6, nt, nt, i, -1.5
48. Cc1ccc(C)c(S(=O)(=O)N2CCN(C(=O)Cc3ccc(S(=O)(=O)N4CCOCC4)s3)CC2)c1
  1, 0, 1.4, -6.2, 12, 6, -5, nt, i, 2.1
49. COC(=O)c1c(NC(=O)c2ccccc2)sc2c1CC(C)(C)NC2(C)C
  1, -1, 0.6, 0.5, 6, -14, nt, 0, i, 7.4
50. Cc1ccc(C(=O)COC(=O)c2nc(Cl)ccc2Cl)cc1
  -2, 4, -1.3, -2.3, nt, nt, -3, -6, i, nt
51. CCc1nn(CC(=O)Nc2ccc(Br)c(C)c2)c(=N)s1
  -14, -5, 2.6, 5.2, -3, 36, 99*, -5, i, -1.2
52. CCOc1ccc(NC(=O)CN(C)C(=O)c2cc(-c3cccs3)nn2-c2ccccc2)cc1OCC
  8, 25, 0.3, -3.9, 11, nt, -5, -3, i, 0.5
53. Cc1nnc(SCc2ccc(CC(=O)O)cc2)o1
  nt, nt, nt, nt, 2, 8, -8, nt, nt, 2.9

Part of the list above with just AF4-AF9 inh, Ecoli rRNA inh RFP and RanGTP-Imp inh:
nr | SMILES | AF4-AF9 inh | Ecoli rRNA inh RFP | RanGTP-Imp inh
46 | COc1ccc(C2=NN(C(N)=S)C(c3ccccc3)C2)cc1 (stereo not drawn) | 9.8 | -2.0 | 0.5
43 | O=C(CCNS(=O)(=O)c1ccc(OC(F)(F)F)cc1)NCCc1c[nH]c2ccccc12 | 0.9 | 9.6 | nt

Some of the compounds tested; the hit share may differ from the screen's.
